Anthrax LT inh – qHTS Assay for Anthrax Lethal Toxin Internalization; AID 912, 2007; Cells, anthrax lethal toxin internalization, FRET ratio (460/530); 70,000 tested, 0.67% active; Potency, µM (doses to about 40 µM), for the others: top-dose activity change, negative = inhibition, usual class: inhibitors; active = well fitted falling ratio curve with the 530 nm signal flat; inconclusive = other ratio curves, or a change in one channel alone; inactive = flat curves in the ratio and both channels; the % refers to the ratio; also: % is scaled to controls: 0 for no effect and ±100 for the full control effect; nearly all actives have a fitted effect of over 50% in size; tested in ME-180 cells; beta-lactamase reporter
Prx2 Sm inh – Schistosoma Mansoni Peroxiredoxins (Prx2) | Potency, µM | AID 448, 2006 | Schistosoma mansoni peroxiredoxin 2 (Prx2) | S. mansoni Prx2 activity coupled to TGR/GSH (TGR is thioredoxin glutathione reductase), NADPH fluorescence loss, qHTS; some inactives read as strong as hits | 65,000 tested, 0.07% active; active means full or partial inhibition curve with a strong effect at the top dose; inconclusive means weaker partial or single-point curve; inactive means no accepted curve; also: series up to 57 µM; many of its hits are not listed in these tables
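qHTS, coupled TGR/Prx2 format; 15 min compound preincubation at RT; reaction started with H2O2 (2.5 mM aliquot); kinetic NADPH fluorescence decrease, ex 365/em 450 nm.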
Starred values were filed as active, the others as inactive; u = inconclusive; x = no result given; & = joins results of further samples; [ ] = dose if it differs, or a comment. Potency is read from the fitted curve at half-maximal effect. Not all compounds are listed; rates above refer to the full screens.

SMILES	Anthrax LT inh	Prx2 Sm inh
CC(C)(C)NC(=O)Cn1nnc(-c2ccccc2Cl)n1	-3%	>57
COc1ccc(S(=O)(=O)N(C)CC(=O)O)c2ccccc12	-4%	>57
N#Cc1ccccc1-n1c(N)c(C(=O)N2CCCC2)sc1=S	u	x
NC(=O)NC(=O)COC(=O)CCCc1c[nH]c2ccccc12	-2%	>57
CCOC(=O)c1[nH]c(C(=O)O)c(CCN(CC)CC)c1C	-8%	>57
CCN1C(=O)C(O)(C2COC(C)(C)CC2=O)c2cc(Br)ccc21 (centres undefined)	u	>57
Cc1cn(C2C=CC(CO)O2)c(=O)[nH]c1=O (centres undefined)	-11%	>57
O=S(=O)(Nc1nc2ccccc2nc1NCCO)c1cccc(Cl)c1	1%	>57
O=C(c1cc(C(F)(F)F)cc(C(F)(F)F)c1)N1CCC2(CC1)CCN(c1ccncc1)CC2	u	>57
Cc1nonc1NC(=O)Nc1cccnc1	-22%	>57
COCCn1c(=O)c(-c2cccc(F)c2)nc2cncnc21	u	>57
CC1(C)CC(=O)c2c(nc3ccccc3c2N)C1	x	>57
Cc1cc(C)nc(SCCCn2c(=O)[nH]c3ccccc32)n1	-13%	>57
CCOC(=O)C1CCCN(C(=O)C2CC(=O)N(c3ccc(C)cc3)C2)C1 (centres undefined)	x	>57
O=C(NC1CCCCCC1)c1ccc(N2CCCC2=O)cc1	-7%	>57
O=C(CSc1nc(-c2cccs2)cc(C(F)(F)F)n1)NCc1ccco1	-15%	>57
CCOc1ccc(NC(=O)CCS(=O)(=O)c2ccc3c(c2)CCCN3C(C)=O)cc1	8%	>57
CCOc1ccc(NC(=O)c2ccc(N)cc2)cc1	-7%	>57
COc1ccc(CNC(=O)C2COc3ccccc3O2)c(OC)c1 (centres undefined)	3%	>57
Cn1c(SCc2nc3ccccc3[nH]2)nnc1-c1cccs1	x	>57
CCNC(=O)c1ccccc1-c1nc(-c2ccccc2Cl)no1	x	>57
Cn1nnnc1SCc1cn2cccnc2n1	2%	>57
N#CCC(=O)NCCCOC(=O)Nc1ccc(Cl)c(Cl)c1	u	x
CC1CCCN(C(=O)CSCC(=O)N=c2sc3ccccc3n2C)C1 (centres undefined)	6%	>57
CCCC(c1nnnn1C1CCCCC1)N1CCN(C2CCCC2)CC1 (centres undefined)	-9%	>57
NC(=O)c1cc(Cl)cn(-c2ccccc2)c1=O	-3%	>57
O=S(=O)(NCc1ccc2c(c1)OCO2)c1cccc(S(=O)(=O)N2CCOCC2)c1	u	>57
COC(=O)CCN(C(=O)C1C2CC3CC(C2)CC1C3)c1ccccn1 (centres undefined)	15%	>57
CS(=O)(=O)CCNCc1nc(-c2ccc3ncnc(Nc4ccc(OCc5cccc(F)c5)c(Cl)c4)c3c2)cs1	u	x
CC(=O)NCCNc1ncnc2ccc(-c3c(C)noc3C)cc12	10%	>57
Cc1cccc(-c2nc(CSCC(=O)N3CCN(c4ccccn4)CC3)c(C)o2)c1	u	>57
Cc1ccc(C)c(S(=O)(=O)Nc2ccc(S(=O)(=O)Nc3onc(C)c3C)cc2)c1	10%	>57
O=C1CCCN1CC(CN1CCOCC1)Sc1nnnn1-c1ccccc1 (centres undefined)	7%	>57
CCCCN(CC)C(=O)Cc1c(C(=O)O)[nH]c2ccc(Cl)cc12	7%	>57
CCOc1nc(NCc2ccco2)nc(Nc2ccc(OC)cc2)n1	0%	>57
Cc1cc(NC(=O)c2c(-c3ccccc3Cl)noc2C)no1	6%	>57
CCCc1[nH]nc2c1C(c1ccncc1)C(C#N)=C(N)O2 (centres undefined)	-9%	>57
COCCN1C(=O)C(=O)/C(=C(/O)c2cccc(OC)c2)C1c1ccco1 (centres undefined)	-17%	>57
Cc1nnc(SCCn2c(Br)nc3c2c(=O)n(C)c(=O)n3C)s1	x	>57
COC(=O)[C@@]1(Cc2ccc(F)cc2)[C@H]2c3cc(C(=O)N(C)C)n(CC4CC4)c3C[C@H]2CN1C(=O)c1ccccc1	5%	>57
COc1ccc(N(CC(=O)Nc2nccs2)S(=O)(=O)c2c(C)nn(C)c2C)cc1	4%	>57
O=C(CSc1nnc(-c2cccc(S(=O)(=O)N3CCCCC3)c2)o1)NCCC1=CCCCC1	6%	>57
O=C(Cc1ccccc1)OCn1nnc2ccccc2c1=O	-9%	>57
c1ccc2oc(N3CCNCC3)nc2c1	-12%	>57
COc1ccccc1C(=O)Nn1cnc2ccccc2c1=O	14%	>57
O=C(COC(=O)CCCNC(=O)c1ccc(Cl)cc1)NC1CC1	-19%	>57
Cc1cnc[nH]1	-8%	x
CC(C)n1cc(C(=O)N(CC(=O)NC2CCCC2)Cc2ccccc2)cn1	6%	>57
CCN(C(=O)CSc1nnnn1-c1cc(C)ccc1OC)C1CCS(=O)(=O)C1 (centres undefined)	5%	>57
Cc1ccccc1OCC(=O)Nc1ccc2c(c1)COC2=O	-18%	>57
COc1ccc(O)c(C(=O)c2cnc3onc(C)c3c2)c1	-4%	>57
CC(CCc1ccco1)NC(=O)c1cc2c(-c3ccccc3F)nn(C)c2s1 (centres undefined)	u	>57
NS(=O)(=O)c1nc(S(=O)(=O)O)c2[nH]cnc2n1	u	>57
CCCC(=O)NCc1nc2ccccc2n1C	10%	>57
Cn1c(=O)c2c(nc(NCc3cccnc3)n2Cc2cccc(C(F)(F)F)c2)n(C)c1=O	12%	>57
O=C(Nc1c(F)cc(F)cc1Br)C1CCCO1 (centres undefined)	6%	>57
CCC(=O)N1c2ccccc2NC2=C(C(=O)CCC2)C1c1cccnc1 (centres undefined)	3%	>57
CN1CCC(N(C)c2nc(-c3ccccc3)nc3ccccc23)CC1	-7%	>57
O=C(NCCc1c[nH]c2ccccc12)c1ccc(-n2cnnn2)cc1	18%	>57
CCNc1ncc2nc(-c3ccc(Cl)cc3)c(=O)n(Cc3ccc(F)cc3)c2n1	u	>57

Single records, from the list above. Order of screens: Anthrax LT inh	Prx2 Sm inh
COc1ccc(S(=O)(=O)N(C)CC(=O)O)c2ccccc12 is listed with -4%	>57
CCC(=O)N1c2ccccc2NC2=C(C(=O)CCC2)C1c1cccnc1 (centres undefined) is listed with 3%	>57
CN1CCC(N(C)c2nc(-c3ccccc3)nc3ccccc23)CC1 is listed with -7%	>57
CCCC(c1nnnn1C1CCCCC1)N1CCN(C2CCCC2)CC1 (centres undefined) is listed with -9%	>57
Cc1cc(C)nc(SCCCn2c(=O)[nH]c3ccccc32)n1 is listed with -13%	>57

No new results follow: entries from further up.
SMILES	Anthrax LT inh	Prx2 Sm inh
CN1CCC(N(C)c2nc(-c3ccccc3)nc3ccccc23)CC1	-7%	>57
O=C(NCCc1c[nH]c2ccccc12)c1ccc(-n2cnnn2)cc1	18%	>57
CCNc1ncc2nc(-c3ccc(Cl)cc3)c(=O)n(Cc3ccc(F)cc3)c2n1	u	>57

The main list resumes, repeating the 7 entries before the break.
SMILES	Anthrax LT inh	Prx2 Sm inh
CCCC(=O)NCc1nc2ccccc2n1C	10%	>57
Cn1c(=O)c2c(nc(NCc3cccnc3)n2Cc2cccc(C(F)(F)F)c2)n(C)c1=O	12%	>57
O=C(Nc1c(F)cc(F)cc1Br)C1CCCO1 (centres undefined)	6%	>57
CCC(=O)N1c2ccccc2NC2=C(C(=O)CCC2)C1c1cccnc1 (centres undefined)	3%	>57
CN1CCC(N(C)c2nc(-c3ccccc3)nc3ccccc23)CC1	-7%	>57
O=C(NCCc1c[nH]c2ccccc12)c1ccc(-n2cnnn2)cc1	18%	>57
CCNc1ncc2nc(-c3ccc(Cl)cc3)c(=O)n(Cc3ccc(F)cc3)c2n1	u	>57
O=C(c1cc2ncc(Br)cn2n1)N1CCN(C(=O)c2ccco2)CC1	9%	>57
O=C(CN1C(=O)COc2ccccc21)N1CCCc2ccccc21	-11%	>57
Nc1ccc(O)c(C(=O)O)c1	6%	>57
CCN1C(=O)[C@H]2[C@H]3[C@H](O)[C@H](O)C/C(=N/OC[C@@H](C)[C@H](OCc4ccccc4)C(C)C)[C@@H]3CC[C@@H]2C1=O	-7%[8 µM]	x
COC(=O)c1c(C)nn(-c2ccccc2)c1N	-7%	>57
O=C1CCCC=C1[C@@H](O)C1CCCCC1	-7%[8 µM]	x
CC1=C(C(=O)OCC2CCCO2)C(c2ccc(C)o2)C2=C(CC(c3ccc(F)cc3)CC2=O)N1 (centres undefined)	-7%	>57
Cc1nccn1S(=O)(=O)c1ccc(Br)cc1Br	4%	>57
COc1ccc(-c2[nH]nc3c2C(c2ccncc2)C(C#N)=C(N)O3)cc1 (centres undefined)	13%	>57
Nc1nnc(-c2cn(-c3ccccc3)nc2-c2ccccc2)o1	-6%	>57
CSc1nc(NC(C)(C)C)nc(N2CCOCC2)n1	u	>57
CCOC(=O)c1ccc(Nc2cc(C)nc(N3CCOCC3)n2)cc1	u	x
O=C(COC(=O)CCNS(=O)(=O)c1ccc2c(c1)OCCO2)NC1CCCc2ccccc21 (centres undefined)	7%	>57
Cc1ccccc1-c1nc(NC2CCNCC2)c2ccccc2n1	2%	>57
COc1ccc(-c2nn(C)c(=O)c3ccccc23)cc1NC(=O)Cn1nc(C)c2ccccc2c1=O	-6%	>57
O=C(COC(=O)c1ccccn1)Nc1cccc(Cl)c1Cl	-4%	>57
CCOc1cc(S(=O)(=O)NCc2cccs2)ccc1Cl	-17%	>57
CCOc1ccc2[nH]c(=O)c(CN(Cc3nnnn3Cc3ccco3)C3CCCCC3)cc2c1	-29%	>57
CCOC(=O)COc1ccc(S(=O)(=O)N2CCN(C(=O)OCC)CC2)cc1	11%	>57
c1ccc(CCn2nnnc2CN2CCCc3ccccc32)cc1	-13%	>57
COc1ccc(CCNC(=O)c2cc3c(=O)n4cccc(C)c4nc3n(Cc3ccncc3)c2=N)cc1	u	>57
CCCCCOC(=O)CSc1nnc(-c2ccccc2)c(=O)[nH]1	12%	>57
Nc1nc(NC(=O)c2ccco2)nn1-c1ccccc1	7%	x
CCOC(=O)Nc1ccc2c(c1)N(C(=O)CCN1CCOCC1)c1ccccc1S2=O (centres undefined)	-16%	>57
CN(C1CCCCC1)S(=O)(=O)c1ccc(NC(=O)c2ccc(Br)o2)cc1	u	>57
COc1nc(Oc2ccc(=O)n(C)n2)nc(N(C)C)n1	-4%	>57
Fc1ccc(Nc2nc(N3CCOCC3)c3ccccc3n2)cc1	2%	>57
Cc1cc(C)nc(N2C(=O)CC(C(=O)O)NC2=NCCc2c[nH]c3ccccc23)n1 (centres undefined)	-8%	>57
O=C(Nc1ccc2c(c1)OCO2)NC1CCN(Cc2ccccc2)CC1	x	>57
CC(C)(C)C1CCc2onc(C(=O)NCc3ccc(F)cc3)c2C1 (centres undefined)	-10%	>57
C[C@@]12CC[C@H](O)C[C@@H]1CC[C@H]1[C@H]2C[C@@H](O)[C@]2(C)[C@@H](C3=CC(=O)OC3)CC[C@@]12O	u	>11
N#Cc1c(NC(=O)CN2CCCCC2)sc2c1CCC2	26%	>57
O=C(CSc1nnc(COc2ccccc2)n1Cc1ccco1)Nc1ccc2c(c1)OCCO2	14%	>57
CCOC(=O)C1CCCN(C(=O)Cn2nc(CC)n3c(cc4sccc43)c2=O)C1 (centres undefined)	9%	>57
N#Cc1c(N)sc(=S)c2c1CCN(Cc1ccccc1)C2	u	>57
COc1nc(NCc2cccnc2)nc(OC)n1	-8%	x
CCCCOC(=O)c1ccc(N2C(=O)CC(N3CCN(C/C=C/c4ccccc4)CC3)C2=O)cc1 (centres undefined)	2%	>57
CN(Cc1cnc2nc(N)nc(N)c2n1)c1ccc(C(=O)N[C@@H](CCC(=O)O)C(=O)O)cc1	15%	>57
COc1cc(OC)c(S(=O)(=O)NCc2ccco2)cc1S(=O)(=O)NCc1ccco1	8%	>57
N#Cc1cc2nc(O)c(O)nc2cc1[N+](=O)[O-]	u	>57&>57
CC1Cn2c(nc3sc4c(c3c2=O)CCC4)N1CCO (centres undefined)	-1%	>57
O=S(=O)(c1cccs1)N1CCc2ccccc2C1	-10%	>57
CCn1c(SCc2ccc(C(=O)OC)o2)nc2sc3c(c2c1=O)CCCC3	7%	>57
COc1ccc(C(CC(=O)O)NC(=O)Cc2ccccc2)cc1 (centres undefined)	6%	>57
CCNc1ncc2nc(-c3cccs3)c(=O)n(-c3ccccc3)c2n1	u	>57
CCC(C)(C)n1nnnc1C(C(C)C)N1CCN(C)CC1 (centres undefined)	u	>57
COc1ccccc1NC(=O)CSC1CC(=O)N(c2ccc3c(c2)OCO3)C1=O (centres undefined)	-19%	>57
CCCc1nc(NCc2ccco2)c(C#N)c2c1COC(C)(C)C2	-17%	>57
C=CCSc1nc2c(c(=O)[nH]1)C(C(C)C)C(C#N)=C(N)O2 (centres undefined)	u	>57
COc1ccc(N2CC(C(=O)NCCc3ccc(OC)c(OC)c3)CC2=O)cc1 (centres undefined)	-4%	x
Cc1ccc(OCc2nnc(SCC(=O)NC3CCCCC3)n2C)cc1	7%	>57
O=C(CSc1nc(-c2ccccc2)cc(=O)[nH]1)NCc1ccc2c(c1)OCO2	11%	>57
O=C(c1cc(-c2cccnc2)nc2ccc(Cl)cc12)N1CCC2(CC1)OCCO2	11%	>57
O=C(NCCCCNC(=O)c1cccnc1)c1cccnc1	-18%	>57
Cc1ccc(S(=O)(=O)/N=C(/Nc2nc(C)cc(C)n2)N2CCOCC2)cc1	-6%	>57

Screening data: PubChem BioAssay, National Center for Advancing Translational Sciences (NCATS)
